NPYLR7 agonist = agonists of mosquito NPYLR7 receptor, primary screen, cell-based, Aedes aegypti, calcium fluorescence, mosquito biting behavior; Aedes aegypti neuropeptide Y-like receptor 7 (NPYLR7); HEK293T NPYLR7/Galpha15, GCaMP6s calcium fluorescence; activation, % at 10 µM; 270,000 tested, 0.15% active; in the data active = activation above about 40%;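 also: 0% = vehicle and 100% = reference agonist at the receptor; some compounds past the cut are filed as inactive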
NPYLR7 agonist max-min = further read-out of NPYLR7 agonist, marked with its call; activation, %; measured here: Max-Min RFU normalised activation; some inactives read as strong as hits;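 span of the calcium signal over five minutes; 0% = vehicle and 100% = native peptide agonist; compound fluorescence can raise it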
* hit, by the source's call; & = joins results of further samples. Only part of the results is shown, so the mix of outcomes need not match the whole.

1	Cc1cccc(C(=O)NCc2ccc(-c3ncc(-c4ccc(F)cc4)[nH]3)cc2)c1
2	O=C(NC12CC3CC(CC(O)(C3)C1)C2)c1cccc(NCc2cccs2)c1
3	Cc1ccc(C)c(CSc2nc(=O)n3cccc(C)c3n2)c1
4	c1ccc(Cn2cc(CN3CCN(c4ccccn4)CC3)c(-c3cc4ccccc4o3)n2)cc1
5	CC(=O)Oc1ccccc1Cn1c(C)c(C(=O)NCc2ccc(C(C)C)cc2)sc1=O
6	O=C1NC(=O)C(Nc2ccccc2Cl)S1 (centres undefined)
7	COc1cc(CC(=O)NCCc2nc3cc(F)ccc3s2)ccc1C
8	CNC(=S)NN=C(C)c1ccc2c(c1)OCO2
assay / compound	1	2	3	4	5	6	7	8
NPYLR7 agonist	2.4	2.0	4.5	27.4	2.5	3.3	-0.9	-7.2
NPYLR7 agonist max-min	4.3	-0.6	-0.9	12.0	-1.7	1.0	-2.0	-11.2

9	O=C(c1cn(-c2cc(N3CCSCC3)ncn2)cn1)N1CCCc2ccccc21
10	CCOC(=O)C1(Cc2ccccc2C)CCCN(C(=O)Cn2nc(C)cc2C)C1 (centres undefined)
11	CN(C(=O)CSc1nc2c(cnn2Cc2cccc(Cl)c2)c(=O)[nH]1)c1ccccc1
12	CCCCCCCC(=O)Nc1cc(-c2onc3c2CCc2ccccc2-3)ccc1OC
13	Cc1[nH]cnc1CN(CCO)CC12CC3CC(CC(C3)C1)C2
14	CC(C)C[C@@H](N)C(=O)NC1CCN(S(C)(=O)=O)CC1
15	CCOC(=O)c1[nH]c2ccccc2c1NC(=O)c1ccccc1Cl
16	CN(Cc1ccccc1)CC1CCCN(CCO)C1 (centres undefined)
assay / compound	9	10	11	12	13	14	15	16
NPYLR7 agonist	-11.9	0.1	-1.5	4.0	13.1	-10.3	-0.3	7.9
NPYLR7 agonist max-min	-11.4	1.8	-1.1	1.8	9.6	-13.8	14.1	3.2

17	CN1CC[C@H]2CC[C@@H](C1)N2c1ccnc(C(=O)NCc2cccnc2)c1
18	COCC1N(S(C)(=O)=O)C2CCC1(O)CC2 (centres undefined)
19	CN(Cc1nc2ccccc2s1)Cn1nc(-c2ccccc2Cl)n(C)c1=S
20	CCOC(=O)C1C2C=CC3(CN(Cc4ccco4)C(=O)C13)O2 (centres undefined)
21	C(=Nn1c(-c2ccco2)csc1=NC1CCCCC1)c1ccccn1
22	CC(NC(=O)NC1CCOC1c1ccccc1)c1ccc(C#N)cc1 (centres undefined)
23	COC(=O)N1C2C=CC(C2)C1(C(F)(F)F)C(F)(F)F (centres undefined)
24	Cc1ccc(-n2ncc3c(C)nnc(SCC(=O)N4CCC(C)CC4)c32)cc1C
assay / compound	17	18	19	20	21	22	23	24
NPYLR7 agonist	11.4	25.7	5.9	3.8	-1.3	3.8&-0.3	4.1	-7.0
NPYLR7 agonist max-min	8.6	30.1	3.3	2.6	-7.7	2.5&-1.4	3.8	-13.0

Of the compounds above, seven have a halogen.
1	Cc1cccc(C(=O)NCc2ccc(-c3ncc(-c4ccc(F)cc4)[nH]3)cc2)c1
6	O=C1NC(=O)C(Nc2ccccc2Cl)S1 (centres undefined)
7	COc1cc(CC(=O)NCCc2nc3cc(F)ccc3s2)ccc1C
11	CN(C(=O)CSc1nc2c(cnn2Cc2cccc(Cl)c2)c(=O)[nH]1)c1ccccc1
15	CCOC(=O)c1[nH]c2ccccc2c1NC(=O)c1ccccc1Cl
19	CN(Cc1nc2ccccc2s1)Cn1nc(-c2ccccc2Cl)n(C)c1=S
23	COC(=O)N1C2C=CC(C2)C1(C(F)(F)F)C(F)(F)F (centres undefined)
assay / compound	1	6	7	11	15	19	23
NPYLR7 agonist	2.4	3.3	-0.9	-1.5	-0.3	5.9	4.1
NPYLR7 agonist max-min	4.3	1.0	-2.0	-1.1	14.1	3.3	3.8

(further entries)
25	COc1ccc(-c2csc3nc(C)nc(N4CCCCC4CNS(C)(=O)=O)c23)cc1OC (centres undefined)
26	O=C(c1cccnc1)N1CCC(Oc2ccc(C(=O)N3C[C@@H]4CCC[C@H]3C4)cc2)CC1
27	c1ccc2c(c1)cnn2CCCNc1cnccn1
28	CCn1nc(CC(C)C)cc1C(=O)N1CC(c2ccncc2)C1
29	C=CCn1c(C)c(C)n2c3c(=O)n(CCCc4ccccc4)c(=O)n(C)c3nc12
30	COc1ccc(CCN(C)c2cc(C)nc(SCc3cccc(C(=O)NCc4ccccn4)c3)n2)cc1OC
31	Cc1ccc(-c2nnc3n(C)c4c(=O)[nH]c(=O)n(C)c4n23)cc1
32	Cc1[nH]n(-c2cccc(Cl)c2)c(=O)c1C1=C([n+]2ccccc2)C(=O)N(C2CCCCC2)C1=O
assay / compound	25	26	27	28	29	30	31	32
NPYLR7 agonist	-0.5	7.4	12.6	-0.4	7.9	1.0	6.0	-3.0
NPYLR7 agonist max-min	6.9	11.1	5.7	-3.0	7.2	6.2	0.7	3.9

33	O=C(NC(=Cc1ccco1)C(=O)N1CCOCC1)c1ccco1
34	CS(=O)(=O)Oc1ccc(CNCc2ccco2)cc1
35	Cc1cc(=O)c(C(=O)OC(C)C(=O)N2CCC(C)CC2)nn1-c1ccccc1F (centres undefined)
36	COc1cc2c(cc1OC)-c1nncn1C(C)(C)C2
37	O=C1C2C3C=CC(C3)C2C(=O)N1c1ccccc1Cl (centres undefined)
38	CCn1c(CC2CCN(Cc3cc4c(cc3C)OCO4)CC2)n[nH]c1=O
39	Cc1ccc(NC(=O)C2CCCN(Cc3noc(-c4ccoc4)n3)C2)nc1 (centres undefined)
40	COc1ccc(NC2CCCN(C(=O)CCc3cccc(Cl)c3)C2)cc1 (centres undefined)
assay / compound	33	34	35	36	37	38	39	40
NPYLR7 agonist	10.5	-2.3	10.1	2.4	-8.5	2.3	-2.6	18.6
NPYLR7 agonist max-min	12.3	8.6	2.2	-0.3	-11.0	1.7	-6.8	7.7

41	CCNc1cc(C)nc(N2CCN(C(=O)CC)CC2)n1
42	O=S(=O)(NCc1ccccc1)N[C@H]1COC[C@@H]1N1CCCC1
43	CCc1noc(C)c1C(=O)NCCCC(CC)(CC)C1OCCO1
44	Clc1cccc(CN2CCN(Cc3ccc4nonc4c3)CC2)c1
45	CCCCCCSc1cc(C)nc2ncnn12
46	Cc1cc(C)c(S(=O)(=O)NCCNc2ccc(Nc3cccc(C)n3)nn2)c(C)c1
47	COC(=O)CSc1nc2c(c(=O)n1-c1ccc(OC(F)(F)F)cc1)SCC2
48	COC(=O)COc1cccc(C=NNS(=O)(=O)c2ccccc2)c1
assay / compound	41	42	43	44	45	46	47	48
NPYLR7 agonist	8.3	0.1	4.4	0.5	-2.9	2.5	-1.5	-2.1
NPYLR7 agonist max-min	2.2	15.0	2.2	-0.1	-3.3	-3.5	-5.1	-4.8

49	CC1CN(CC(=O)Nc2ccc3c(c2)OCO3)CC(C)O1 (centres undefined)
50	CC1=C(C(=O)N2CCc3onc(-c4ccc5c(c4)OCO5)c3C2)OCCO1
51	COC(=O)c1c(N2C(=O)C3ON(c4ccccc4)C(c4ccccc4)C3C2=O)sc2c1CCCC2 (centres undefined)
52	CNc1nc2cnc(Nc3ccc(Oc4ccccc4)cc3)cc2n1-c1cc(OC)c(OC)c(OC)c1
53	CN(C(=O)c1cccs1)c1ccc(OCC(=O)N2CCC(C(N)=O)CC2)cc1
54	N#C/C(=C\N1CCC(C(N)=O)CC1)C(=O)NCCc1ccccc1
55	CCc1nc(C)ccc1OCC(=O)N1CCC(O)(CN(C)C)C1 (centres undefined)
56	COc1ccc2oc(C(F)(F)F)cc(=O)c2c1
assay / compound	49	50	51	52	53	54	55	56
NPYLR7 agonist	-1.1	7.9	-5.8	17.6	3.5	6.3	5.0	1.0
NPYLR7 agonist max-min	-1.6	5.7	-10.5	7.9	1.9	4.7	5.3	-1.8

57	Cc1nc(C)n(CCCNC(C)CO)n1 (centres undefined)
58	Cc1ccc(NC(=O)CCNS(=O)(=O)NCc2ccccc2)c(F)c1
59	CN(CC(=O)Nc1ccc(Cl)cc1Cl)Cc1ccsc1
60	C=CCn1cc(CNCc2c(C)cc(C)nc2OC)c(C)n1
61	CCOc1ccc(/C=C/C(=O)N(C)Cc2ccccc2O)cc1OCC
62	CCOC(=O)c1ccc(S(=O)(=O)N2CCN(c3ccc4nnc(CC)n4n3)CC2)cc1
63	CCOC(=O)c1cn(Cc2csc(N)n2)cc(Oc2ccccc2)c1=O
64	COc1ccc(-c2ccc(=O)n(CCNC(=O)c3ccc(Br)o3)n2)cc1
assay / compound	57	58	59	60	61	62	63	64
NPYLR7 agonist	2.9	10.1	8.1	-2.9	-9.1	3.0	1.2	9.5
NPYLR7 agonist max-min	2.2	7.0	2.4	-4.9	-12.5	7.8	-0.3	6.2

65	NC(=O)Cc1cccc(OCc2ccn(-c3ccccc3)n2)c1
66	CN(CC(=O)NC1C=CS(=O)(=O)C1)Cc1ccc(Cl)c(Cl)c1 (centres undefined)
67	O=S(=O)(c1cccc(-c2nnc(SCc3cccc(Br)c3)o2)c1)N1CCOCC1
68	O=c1c2nc(N3CCOCC3)sc2c(-c2cccs2)nn1Cc1cccc(F)c1
69	CO[C@H]1[C@H](NC(=O)c2ccncc2)c2ccccc2C12CCN(C(=O)c1cc3cc(C)ccc3[nH]1)CC2
70	CCCN(CCC)CC(O)COC1CCC(C(C)(C)C)CC1 (centres undefined)
71	NC(=O)c1cc2c(cc1-c1cccc(C(F)(F)F)c1)OCO2
72	COCCN(Cc1ccc(OC)cc1)c1c(C)nc2ccc(C(=O)Nc3ccc(C(N)=O)cc3)cn12
assay / compound	65	66	67	68	69	70	71	72
NPYLR7 agonist	3.6	-3.5	15.3	-1.8	3.2	-1.4	-5.0	-3.0
NPYLR7 agonist max-min	6.6	-5.8	14.1	-6.8	-0.4	-4.0	-2.9	-8.3

73	CN(C)CCCN(C(=O)c1ccc(Br)cc1)c1nc2c(F)cc(F)cc2s1
74	Cc1[nH]ncc1C(=O)N1CC[C@@H](c2ccc(F)cc2)[C@H](O)C1
75	CC(=O)Oc1c(-c2ccc(NC(=O)Nc3ccc(C)cc3)cc2)c(-c2cccc(C)c2)nn1-c1cccc(F)c1
76	COc1ccc2c(c1)OC1(C)CC2C(S(=O)(=O)c2ccc(C(C)(C)C)cc2)C(=O)N1 (centres undefined)
77	Cc1nnc(SCC(=O)N(c2ccccc2)C(C)C)[nH]c1=O
78	COc1ccccc1NC(=O)N1CCc2cc(OC)c(OC)cc2C1CNC(=O)c1cccs1 (centres undefined)
79	CN1CCC(N2C[C@H](O)C[C@H]2c2nc(-c3ccccc3)no2)CC1
80	COCCCN(CC(=O)N(Cc1cccn1Cc1ccc(F)cc1)C1CCCCC1)C(=O)CCCl
assay / compound	73	74	75	76	77	78	79	80
NPYLR7 agonist	2.0	-0.4	-2.1	9.0	3.2	-0.1	-6.3	-0.9
NPYLR7 agonist max-min	0.6	3.6	5.3	12.0	1.5	1.5	-12.8	4.5

81	CCCCNCc1ccc(OS(C)(=O)=O)cc1
82	COc1ccc(C2CCCN2C(=O)c2ccc(O)c(Cl)c2)cc1OC (centres undefined)
83	O=C(CC(c1ccc2c(c1)OCO2)c1c[nH]c2ccccc12)NCCN1CCCCC1 (centres undefined)
84	CCCNC(=O)C1(C)CCN(Cc2csc(-c3ccc(Cl)cc3)n2)C1 (centres undefined)
85	CCN(CC)CCCC(C)NC(=O)c1cc(-c2ccc(F)cc2)n(-c2ccccc2)c1C (centres undefined)
86	CC1=[N+](C)CCn2cccc21
87	CC1(C(=O)NS(=O)(=O)c2ccccc2C(F)(F)F)CCN1C(=O)COc1ccc(Cl)cc1 (centres undefined)
88	CN1CCC2(CCCN(C(=O)c3[nH]ncc3Cl)CC2)CC1
assay / compound	81	82	83	84	85	86	87	88
NPYLR7 agonist	9.0	0.0	-2.8	0.4	-1.8	20.6	6.3	6.5
NPYLR7 agonist max-min	8.5	0.6	6.3	1.3	0.0	12.9	4.6	6.2

89	CCOC(=O)CCCC(=O)Nc1cccc(-c2cc(C(=O)OCC)nn2-c2ccccc2OC)c1
90	CC(O)(CNC(=O)NCc1cccc(C#N)c1)c1ccsc1 (centres undefined)
91	COC(=O)c1ccc(NC(=O)c2c(C(=O)Nc3ccc(F)cc3)sc3nc(C)cc(=O)n23)cc1
92	CCOc1ccc(Nc2cncc(Cl)n2)cc1
93	CCOC(=O)C1CCCN(CC(=O)N2N=C(c3ccccc3OC)CC2c2ccccc2Cl)C1 (centres undefined)
94	CC(C)C(=O)NCCNC(=O)C1CCN(S(=O)(=O)c2ccc(Cl)c(C(F)(F)F)c2)CC1
assay / compound	89	90	91	92	93	94
NPYLR7 agonist	28.0	1.2	-1.5	9.0	6.4	0.2
NPYLR7 agonist max-min	14.4	0.5	-8.1	6.5	9.7	11.5

Source: PubChem (Fisher Drug Discovery Resource Center)
